Bm FixLJ act: increases Burkholderia fixLJ two-component signaling | AID 1918990 | z-score (concentration not given with the values) | hit rate 0.3% among 29,000 | B. multivorans fixK-promoter GFP reporter, 18 h; hits give high values;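 active = replicate mean overnight rise in green fluorescent reporter signal, 3 or more SD over negative controls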;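 note: score is relative to vehicle wells of the plate; 300 nL library stock went into each well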
Active calls of the source: *.

| mol | Bm FixLJ act |
| --- | --- |
| CCCCn1nc(NC(=O)c2cccc(Cl)c2)c2cc3ccc(C)cc3nc21 | -1.4 |
| COCCOCC(=O)N1CCCC(c2ccn(CC(=O)O)n2)C1 (configuration not stated) | -0.73 |
| COc1cccc(NC(=O)CCNS(=O)(=O)c2ccc(Br)s2)c1 | -0.57 |
| CCOC(=O)C(C)NC(=O)c1cc2c(=O)[nH]c3ccc(C)cc3c2s1 (configuration not stated) | -2.8 |
| CCCN1C(=O)c2oc3cc(C)cc(C)c3c(=O)c2C1c1ccc(F)cc1 (configuration not stated) | -2.3 |
| Cc1nc2ccc(S(=O)(=O)NC(CC(C)C)C(=O)N3CCN(c4ccc(F)cc4)CC3)cc2s1 (configuration not stated) | -1.9 |
| COC(=O)c1cc2sc(Cl)cc2n1Cc1nc(-c2ccc(OC)cc2)oc1C | 0.06 |
| COC(=O)c1c(NC(=O)Cc2coc3cc(C)ccc23)sc2c1CCCC2 | -0.34 |
| CCN(CC)C(=O)C1CCCN(C(=O)c2cccc(-c3nccs3)c2)C1 (configuration not stated) | 1.3 |
| CCc1ccccc1NC(=O)CN(Cc1ccccc1)S(=O)(=O)c1ccc(Br)cc1 | 2.1 |
| Cc1nc(-c2cccc(NC(=O)c3coc(CN4CCOCC4)c3)c2)n[nH]1 | 0.26 |
| COCCc1nc(CSc2ccc(Cl)cc2)n(CC(=O)O)n1 | -0.16 |
| Cc1cccc(CCNC(=O)c2cc3c(s2)-c2c(C)cccc2OC3)c1 | -0.41 |
| O=C(Cn1ncc2c(=O)oc3ccccc3c21)NCc1ccccc1Cl | -2.1 |
| COc1cc(CNCCSc2nnnn2C)ccc1OCc1ccccc1C | -0.61 |
| Nc1c(C(=O)NCc2cccs2)nnn1CC(=O)Nc1cccc(F)c1 | 0.05 |
| Cc1cc(N2CCC(C)CC2)nc2ccc(NC(=O)CCC(=O)N3CCN(c4ccccc4F)CC3)cc12 | -1.5 |
| O=C(c1ccc(Cl)cc1)N1CCCCC1CCN1CCOCC1 (configuration not stated) | -0.47 |
| CCC(=O)N1CCc2cc(S(=O)(=O)CCC(=O)N3CCN(c4cccc(C)c4C)CC3)ccc21 | -1.7 |
| COc1ccc(S(=O)(=O)NCc2nc3nc(C)cc(C)n3n2)cc1OC | -0.21 |
| COc1ccc(-n2nnnc2C2CCN(S(=O)(=O)c3cccc(Cl)c3C)CC2)cc1 | -1 |
| CN1CCc2[nH]nc(C(=O)N3CCCC(N(C)C)CC3)c2C1 (configuration not stated) | -1.5 |
| O=C(NCc1nc(-c2ccccc2Cl)no1)C1CC(=O)N(Cc2cccnc2)C1 (configuration not stated) | -1.8 |
| O=c1c2cccnc2n(Cc2ccccc2F)c(=O)n1Cc1ccc(F)cc1 | 0.62 |

Next part; the last five above are carried over.
| mol | Bm FixLJ act |
| --- | --- |
| COc1ccc(S(=O)(=O)NCc2nc3nc(C)cc(C)n3n2)cc1OC | -0.21 |
| COc1ccc(-n2nnnc2C2CCN(S(=O)(=O)c3cccc(Cl)c3C)CC2)cc1 | -1 |
| CN1CCc2[nH]nc(C(=O)N3CCCC(N(C)C)CC3)c2C1 (configuration not stated) | -1.5 |
| O=C(NCc1nc(-c2ccccc2Cl)no1)C1CC(=O)N(Cc2cccnc2)C1 (configuration not stated) | -1.8 |
| O=c1c2cccnc2n(Cc2ccccc2F)c(=O)n1Cc1ccc(F)cc1 | 0.62 |
| CCOc1cccc(Nc2nn(-c3ccc(OC(F)(F)F)cc3)nc2C(C)=O)c1 | -1.6 |
| COc1ccc(-c2nc(SCC(=O)NC3CCCC3)c(-c3ccc(C)cc3)[nH]2)cc1OC | -1.7 |
| COc1ccc(CNC(=O)c2cc3c(=O)n(C)c4ccccc4c3n2C)c(OC)c1 | -1.4 |
| COc1cccc(N2CCN(C(=O)NCc3ccccn3)CC2(C)C)c1 | -1.1 |
| COc1cc(/C=C(\C#N)c2nc3ccccc3[nH]2)ccc1OCc1ccccc1F | 0.9 |
| COc1ccccc1Nc1cc(C(=O)NC2CCCC2)c2ccccc2n1 | 0.23 |
| COc1ccc(NC(=O)Nc2cccc(C)n2)c(OC)c1 | 0.44 |
| CCCc1cc(=O)n2[nH]c(NCc3c(F)cccc3Cl)nc2n1 | -0.86 |
| Cc1ccc(NC(=O)C2CCN(C(=O)c3cnn(-c4ccccc4)c3-n3cccc3)CC2)cc1Cl | -2 |
| CC(=O)N1CCN(Cc2cc(Cl)cc(Cl)c2)C2CS(=O)(=O)CC21 (configuration not stated) | 1.4 |
| CC(C)CN(CCNC(=O)c1cc(-c2ccc(Cl)s2)nc2ccccc12)CC(C)C | -0.51 |
| CCN(Cc1ccccc1)Cc1c(O)ccc2c(=O)c(-c3ccccc3Cl)c(C(F)(F)F)oc12 | -0.48 |
| CCOC(=O)C1CCCN(C(=O)Cn2ncc3c(C)n(Cc4ccc(F)cc4)c(C)c3c2=O)C1 (configuration not stated) | 0.33 |
| Cc1cccc(C)c1NC(=O)C1CCCN(S(=O)(=O)c2c(C)noc2/C=C/N(C)C)C1 (configuration not stated) | 0.14 |
| O=C1CN(C(=O)c2ccc(S(=O)(=O)N3CCCCC3)cc2)C(c2ccc(F)cc2)c2cc(Br)ccc2N1 (configuration not stated) | -0.94 |
| CCCCNc1nc(Oc2ccc(=O)n(C)n2)nc(N2CCOCC2)n1 | -1.2 |
| Cc1cc(C)c(NC(=O)c2sc3nc(C)cc(C)c3c2N)c(C)c1 | -1.1 |
| Cc1ccccc1NC(=O)Cn1nnc(C(=O)NCc2ccco2)c1N | -0.53 |
| Cc1ccc(-c2cc(C(F)(F)F)n3nc(C(=O)Nc4sc5c(c4C#N)CCC(C)C5)cc3n2)cc1 (configuration not stated) | 0.06 |
| Cc1cc(COc2ccccc2)oc1C(=O)Nc1cn(C)nc1C | -2.7 |
| Cc1cnc(CNC(=O)N(CC=Cc2ccccc2)CC(C)C)[nH]1 | 0.2 |
| Cc1c(Cl)cccc1CNC(=O)CCC1NC(=O)NC1=O (configuration not stated) | 0.79 |
| Cc1csc2nc(COc3ccccc3NC(=O)c3ccccc3Cl)cc(=O)n12 | -0.78 |
| O=C(c1ccc(C(=O)N2CCC3(CC2)OCCc2ccsc23)cc1)N1CCOCC1 | -0.56 |
| CC(C)(C)c1ccc2oc(CNC(=O)c3cnc(N)s3)nc2c1 | 1.7 |
| CCN1CCN(c2cc(C)c3cc(NC(=O)c4cccc(C(F)(F)F)c4)ccc3n2)CC1 | -0.47 |
| CCOc1ccc(NC(=O)CN(Cc2ccccc2)S(=O)(=O)c2ccc(Cl)cc2)cc1 | -0.7 |
| Cc1ccc(NC(=O)Cn2c(=O)n(CCc3ccccc3)c(=O)c3c4c(sc32)CCCC4)c(C)c1 | -1.3 |
| COc1cccc(C(=O)NC(=NCCc2c[nH]c3ccc(OC)cc23)Nc2nc(C)cc(C)n2)c1 | -1.6 |
| COC(=O)c1ccccc1NC(=O)c1cc2nc(-c3ccccc3)cc(-c3ccccc3)n2n1 | -0.68 |
| Cc1cccc(C)c1-n1ncc(C(=O)O)c1C1CCN(C(=O)OC(C)(C)C)CC1 | -0.44 |
| CSc1ccc(C2c3c(oc4cc(C)cc(C)c4c3=O)C(=O)N2CCO)cc1 (configuration not stated) | -1.9 |
| O=c1oc2c3c(ccc2c2ccccc12)OCN(Cc1cccc(Cl)c1)C3 | -0.72 |
| Cc1cc(C(=O)N2CCC3(CC2)CC(c2ccccc2)C(=O)N(C)C3)nc(C)n1 (configuration not stated) | 0.28 |
| COc1ccc(-n2cc(C(C)NC(=O)Cn3nc(C)cc3N)cn2)cc1 (configuration not stated) | -0.92 |
| COc1ccc2oc(=O)c(C(=O)NCCc3c(C)[nH]c4c(C)cccc34)cc2c1 | -1.7 |
| Cc1[nH]c2ccccc2c1C1(O)C(=O)N(Cc2ccccc2)c2ccc(Cl)cc21 (configuration not stated) | -1.2 |
| COc1cccc(CNC(=O)C2CCCN(c3nnc(-n4c(C)ccc4C)s3)C2)c1OC (configuration not stated) | -1.2 |
| CCCc1cnc(N2CCC(O)[C@@](CC3CC3)(C(=O)O)C2)nc1 (some centres not stated) | -2.5 |
| CCCOc1cccc(C(=O)Nc2cc(-c3nc4ccccc4[nH]3)ccc2C)c1 | 0.38 |
| CCOC(=O)c1c(NC(C)=O)c2c3c(sc2n1Cc1cc(C)ccc1C)CCCC3 | -1.1 |
| COc1cccc(C(=O)NC2(C(F)(F)F)C(=O)Nc3c2c(=O)[nH]c(=O)n3-c2ccc(C)cc2)c1 (configuration not stated) | -0.03 |
| Cc1cc(C)n(C(C)CNC(=O)c2c[nH]c(=O)c3ccccc23)n1 (configuration not stated) | -0.12 |
| Cn1c(=O)oc2cc(S(=O)(=O)NC(Cc3ccccc3)C(=O)NCc3ccc(F)cc3)ccc21 (configuration not stated) | -0.35 |
| CC(C)n1cccc1C(=O)N(C)Cc1cn[nH]c1-c1ccccc1 | -0.69 |
| COc1ccc(C(=O)c2c(N)c(-c3nc(-c4ccc(OC)cc4)cs3)c3ccccn23)cc1 | -1.7 |
| COC(=O)c1ccc(-n2c(CCC(=O)O)ccc2-c2ccc(C)cc2)cc1 | -2.5 |
| O=C(Cn1nc2ccccc2n1)NCC1CCCN(c2ncnc3nc[nH]c23)C1 (configuration not stated) | -3.1 |
| CCC(C)C(=O)N1CCc2ccc(S(=O)(=O)N3CCN(C)CC3)cc2C1 (configuration not stated) | -0.97 |
| COc1cc2c(C(=O)Nc3ccc(C)cc3Br)cn(C)c(=O)c2cc1OC | 0.99 |
| CC(NC(=O)c1cc2sccc2n1Cc1ccc(F)cc1)c1ccccc1 (configuration not stated) | 0.9 |
| COc1cccc2c1OC[C@]1(C(=O)O)CN(Cc3ncc(C)[nH]3)CC21 (some centres not stated) | 0.93 |
| Cc1ccc(C(=O)Nc2ccc(-c3cn4cccnc4n3)cc2)cc1C | -2 |
| COc1ccc2oc(-c3ccc(C)c(NC(=O)c4ccc5c(c4)OCCO5)c3)nc2c1 | -1.6 |
| CC(C)(C)C1CCc2c(sc(NC(=O)Cn3nnc(-c4ccccc4Cl)n3)c2C#N)C1 (configuration not stated) | -0.54 |
| COc1ccc(-c2nc(CNS(=O)(=O)c3ccccc3)cs2)cc1 | 0.06 |

Part of the list above, with each value named.
> CCCN1C(=O)c2oc3cc(C)cc(C)c3c(=O)c2C1c1ccc(F)cc1 (configuration not stated)
  Bm FixLJ act = -2.3

> Cc1nc2ccc(S(=O)(=O)NC(CC(C)C)C(=O)N3CCN(c4ccc(F)cc4)CC3)cc2s1 (configuration not stated)
  Bm FixLJ act = -1.9

> COC(=O)c1cc2sc(Cl)cc2n1Cc1nc(-c2ccc(OC)cc2)oc1C
  Bm FixLJ act = 0.06

Next section.
| mol | Bm FixLJ act |
| --- | --- |
| CCn1nc(C(C)C)cc1C(=O)N1CC(C(=O)O)C(c2ccccc2C)C1 (configuration not stated) | -1.1 |
| Cc1nc2nc(SCC(=O)N(Cc3ccccc3)C(C)C)nn2c(C)c1Cc1ccccc1Cl | -2.4 |
| CCn1c(C)cc2cc(NC(=O)C(C)n3cc(C)cn3)ccc21 (configuration not stated) | -0.78 |
| COc1ccc(-n2c(C)nc3c(cnn3-c3ccc(C)c(C)c3)c2=O)cc1Cl | 0.42 |
| Cc1cccc(C)c1NC(=O)CN(Cc1ccc(Br)cc1)S(=O)(=O)c1ccccc1 | -1.9 |
| O=C(c1cc(-c2ccccn2)n[nH]1)N1CCCC(c2nc3ccccc3o2)C1 (configuration not stated) | 0.03 |
| Cc1ccc(OCC(=O)Nc2ccc3nn(-c4ccc(Cl)cc4)nc3c2)cc1 | -0.92 |
| CC(=O)Nc1ccc(NC(=O)CSc2nnc3c4cc(Br)ccc4n(C)c3n2)cc1 | -1.3 |
| CC(C)c1nc(NC(C)(C)c2ccccc2)c2cnn(C)c2n1 | 1 |
| CCc1ocnc1C(=O)N1CCCC(C(=O)c2ccccn2)C1 (configuration not stated) | -2.1 |
| CC(C)COc1ccc(C(=O)Nc2cc3nn(-c4ccccc4)nc3cc2Cl)cc1 | -1 |
| COc1ccc(-n2nc3cc(C)c(NC(=O)Cc4ccc(Cl)cc4)cc3n2)cc1 | 0.04 |
| Cc1coc2c(C)c3oc(=O)c(CCC(=O)NCCc4ccc(Cl)cc4)c(C)c3cc12 | -1.3 |
| O=C(CCn1nc(-c2ccc(Cl)cc2)c2ccccc2c1=O)Nc1ccc(OC(F)(F)F)cc1 | 1.3 |
| O=S(=O)(c1ccc2c(c1)OCCO2)N1CCc2[nH]cnc2C1c1cccnc1 (configuration not stated) | -1.2 |
| CCOC(=O)c1sc(NC(=O)c2nc3ncccn3n2)c(C(=O)OC)c1C | -2.1 |
| Cn1ncnc1CCNC(=O)c1ccc(N2CCCC2)c(Cl)c1 | -0.43 |
| CCCN1C(=O)C(Cc2nc3ccccc3c(=O)n2-c2ccc(OC)cc2)c2cc(C)ccc21 (configuration not stated) | -2.3 |
| COc1nc(-c2ccc(C)cc2)ccc1-c1noc(-c2ccccc2Br)n1 | -2.9 |
| N#Cc1ccc(C(=O)NC2CCN(C(=O)c3ccccn3)CC2O)cc1 (configuration not stated) | -1.2 |
| CCn1cc(C(=O)NCCc2ccc(OC)c(OC)c2)c(=O)c2cc(S(=O)(=O)N3CCC(C)CC3)ccc21 | -0.98 |
| O=C(Nc1ccccc1F)c1nc(SCc2ccccc2F)ncc1Cl | 0.34 |
| CC(=O)NCc1cc2n(n1)CCN(S(=O)(=O)c1cc(C)cs1)C2 | -0.79 |
| COc1cccc2cc(C(=O)NCCc3c(C)[nH]c4ccc(Br)cc34)c(=O)oc12 | 0.89 |
| CN(Cc1cccnc1)c1ncc(S(C)(=O)=O)c(C2CCCNC2)n1 (configuration not stated) | -0.74 |
| O=S(=O)(c1ccccc1)c1nc(-c2cccs2)oc1SCc1ccccc1Cl | 0.06 |
| Cc1cc2nc(C(C)C)cc(N(C)Cc3noc(C)n3)n2n1 | 0.58 |
| COc1ccc2c(c1)CCOC21CCN(C(=O)C2CCN(C(=O)C3CCC3)CC2)CC1 | -0.13 |
| COc1cccc2c1cc1c(=O)n(CC(=O)N3CCN(c4cccc(C)c4)C(C)C3)nc(C)n12 (configuration not stated) | 0.6 |

Source: PubChem BioAssay (ICCB-Longwood Screening Facility, Harvard Medical School)

An excerpt; the hit share may differ from the screen's.
